# A488 fluor: A488 region autofluorescence | max dye equivalency, M | 59,000 compounds, 0.1% hits | compound autofluorescence, A488 spectral region, dye equivalency; active compounds read high; active = above 10 nM dye equivalent; inconclusive = 1 to 10 nM; inactive = 1 nM or less; about half of its hits are not listed in these tables;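 further: highest value over a series up to 38 µM; compound alone in buffer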
#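 Compound autofluorescence was read in 100 mM Tris pH 8.0 after 15 min at room temperature, ex 480 nm/em 540 nm. Intensities were converted to A488 dye-equivalent concentration using an on-plate six-point A488 standard curve.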
# TSHR agonist: agonists of human thyroid stimulating hormone receptor | 73,000 compounds, 0.48% hits | Potency, µM (doses to about 57.1 µM), without a hit: at the highest dose activation, hits mostly activators | P16473 | HEK293-CNG-TSHR cells (CNG channel as cAMP sensor), membrane potential dye, cAMP; active = well fitted activation curve of enough size with the parental cells flat; inconclusive = any curve in the parental cells; inactive = parental cells flat and receptor cells flat or falling; further: potency means the concentration at half of the fitted maximal effect; % of control where 0% means no effect; weak receptor curves with flat parental cells got no call and are not listed
# Target sequence (P16473 whole entry, looked up): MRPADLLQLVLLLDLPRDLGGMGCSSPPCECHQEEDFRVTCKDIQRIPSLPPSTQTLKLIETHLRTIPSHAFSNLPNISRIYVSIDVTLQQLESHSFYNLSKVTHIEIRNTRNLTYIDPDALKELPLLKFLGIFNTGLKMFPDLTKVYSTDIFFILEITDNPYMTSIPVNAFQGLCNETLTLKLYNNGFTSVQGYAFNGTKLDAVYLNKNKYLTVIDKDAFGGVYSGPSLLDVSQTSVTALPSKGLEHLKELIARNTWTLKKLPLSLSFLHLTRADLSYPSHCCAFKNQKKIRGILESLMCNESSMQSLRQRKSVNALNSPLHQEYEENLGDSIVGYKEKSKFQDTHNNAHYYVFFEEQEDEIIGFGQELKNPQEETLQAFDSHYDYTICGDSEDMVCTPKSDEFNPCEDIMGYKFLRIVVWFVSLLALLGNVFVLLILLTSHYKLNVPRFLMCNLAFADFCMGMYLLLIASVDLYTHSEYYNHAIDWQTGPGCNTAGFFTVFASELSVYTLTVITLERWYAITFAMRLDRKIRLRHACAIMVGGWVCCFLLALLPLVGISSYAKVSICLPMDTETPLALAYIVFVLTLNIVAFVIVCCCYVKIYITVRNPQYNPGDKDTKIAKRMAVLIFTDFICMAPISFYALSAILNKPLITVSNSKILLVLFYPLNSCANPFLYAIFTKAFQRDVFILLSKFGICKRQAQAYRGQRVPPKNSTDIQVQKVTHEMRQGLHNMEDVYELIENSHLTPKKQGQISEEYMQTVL
#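 cAMP rise detected as CNG-channel membrane depolarization by fluorescent dye (emission 590 nm), 30 min after compound, following 60 min dye loading containing 100 uM RO 20-1724 at room temperature. Cells: TSHR/CNG HEK 293, with parental CNG HEK 293 as control.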
# A647 fluor: A647 region autofluorescence; Compound fluorescence, A647 channel (570/671 nm), Tris buffer; max dye-equivalent concentration, M; 59,000 tested, under 10 active; active means above 1 µM dye equivalent; inconclusive means 0.1 to 1 µM; inactive means 0.1 µM or less;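 further: values scaled relative to a standard on each plate; highest value over a series up to 38 µM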
#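 Spectral profiling of library compounds in pH 8.0 Tris: 15 min room-temperature incubation, single ex/em pair (570/671 nm), response normalized to Alexa 647 equivalents.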
# AID923: qHTS Assay for Allosteric/Competitive Inhibitors of Caspase-1: Spectroscopic Profiling in AFC Spectral Region. compound fluorescence, AFC spectral region (405/520 nm); almost no hit is shown here. Potency, µM (top dose mostly 57.5 µM), inactives show at the top dose fluorescence increase, actives largely listed as activators. 75,000 compounds, 1.1% hits. AID 923, 2007; active means well fitted activation curve with a large enough effect; inconclusive means small, poorly fitted or top-dose-only effect;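 further: potency means the concentration at half of the fitted maximal effect; 0% is about no effect; scaled to a free AFC standard on each plate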
#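 Compound autofluorescence profiled at 405 nm ex/520 nm em during kinetic caspase 1 run (50 nM enzyme, 5 uM Ac-WEHD-AFC, HEPES pH 7.5, 10 mM DTT). Titration up to 57 uM; baseline from regression intercept, normalized to AFC standard curve.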
# Resorufin fluor: compounds fluorescent in resorufin spectral region | Compound fluorescence, resorufin region 547/598 nm, buffer; active compounds read high | max dye-equivalent concentration, M | 59,000 compounds, 0.04% hits | AID 588; active = above 10 nM dye equivalent; inconclusive = 1 to 10 nM; inactive = 1 nM or less; a few of its hits are not listed in these tables; further: highest value over a series up to 38 µM
#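 Read-out: intrinsic compound fluorescence at ex 547/em 598 nm after 15 min at RT in pH 8.0 Tris (100 mM). Values expressed as resorufin-equivalent concentration from per-plate standard series.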
# Starred values were filed as active, the others as inactive; i = inactive; u = inconclusive; x = not tested or not shown; [ ] = remark or other dose.
Structure	A488 fluor	TSHR agonist	A647 fluor	AID923	Resorufin fluor
CCOc1ccccc1NC1c2ccccc2C(=O)N1Cc1ccco1 (stereo not drawn)	x	u	x	5.4%	x
Cc1cc(NC(=O)CCN2CCC(C(N)=O)CC2)ccc1Br	x	-1%	x	-0.1%	x
O=C(OC(C(=O)NCc1cccs1)c1ccccc1Cl)c1ccco1 (stereo not drawn)	i	2%[11.4 µM]	2.4e-09	-0.4%	i
CC(=O)N1CCC[C@@]2(CCN(C(c3ccccc3)c3ccccc3)C2)C1	i	u	1e-09	-2.4%	i
CCCc1cc(-n2ccnc2)n2c(nc3ccccc32)c1C#N	i	18%	6.4e-09	0.2%	i
COc1ccc(C(=O)CSc2nnc(-c3cnccn3)n2Cc2ccco2)cc1	i	u	2.4e-09	6.8%	i
CCCCOC(=O)CN1C(=O)c2ccc(C(=O)OCCCC)cc2C1=O	i	-7%	6.7e-09	0.3%	i
Brc1cnc(N2CCCC2)nc1N1CCOCC1	i	8%	9.5e-09	-0.3%	i
O=C1N(c2ccc(Cl)c(Cl)c2)CN(Cc2ccccc2)CN1n1cnnc1	i	5%	1.8e-08	-1.0%	i
CC(=O)OCC(=O)[C@@]1(O)CC[C@@H]2[C@H]3CCC4=CC(=O)CC[C@]4(C)[C@]3(F)[C@@H](O)C[C@@]21C	i	-12%[25.6 µM]	1e-09	-0.7%[25.7 µM]	i
Cc1ccc(C2CC(=O)Nc3sc(C(N)=O)c(N)c32)cc1 (stereo not drawn)	i	6%	3.8e-09	-1.3%	i
COc1ccc(CNc2ncnc3ccc(-c4ccc5c(c4)OCO5)cc23)c(OC)c1	i	u	2.8e-08	-1.4%	i
COc1cccc(N2CCN(C3CC(=O)N(c4ccc(C)c(Cl)c4)C3=O)CC2)c1 (stereo not drawn)	i	6%	1e-09	-0.4%	i
Cc1cc(Nc2cc(F)ccc2C)n2nc(C)nc2n1	x	9%	x	-0.3%	x
CCN(CC)CCNc1nc2ccccc2n1C	i	-9%	1.9e-08	-0.4%	i
O=C1C=CC(=O)c2c1ccc1c2ccc2ccccc21	i	-18%[25.6 µM]	9.2e-09	-1.0%[25.7 µM]	i
COc1ccc2[nH]c(=O)c(CN(CC3CCCO3)C(=O)Nc3ccccc3OC)cc2c1 (stereo not drawn)	i	15%	2.8e-08	0.5%	i
CCN1c2ccccc2NC2C1C(C(C)=O)C(=O)N2c1ccc(Cl)cc1 (stereo not drawn)	x	5%	x	4.5%	x
CCCCCCN(C(=O)CCCCCN1C(=O)NC(c2ccc(-c3ccccc3)cc2)C(C(=O)OCc2ccccc2)=C1C)C(C(=O)NCCCC)c1ccc(-c2ccccc2)cc1 (stereo not drawn)	x	21%	x	2.5%	x
Cc1cc(N)ccc1-n1c(C)ccc1C	i	11%[11.4 µM]	2e-08	0.3%	i
Cc1ccc(SC/C(O)=C(\C#N)c2nc3ccccc3n2C)cc1	i	u	2.7e-09	5.5%	i
CC(C)N1C(=S)SC(C)(C)C1NO (stereo not drawn)	i	27%	2.2e-08	3.4%	i
CS(=O)(=O)N1CCC[C@@]2(CCN(Cc3ccccc3)C2)C1	i	u	7.9e-09	0.7%	i
O[C@@H](C1=C/C(=C\c2ccncc2)c2ccccc21)c1ccncc1	i	8%[11.4 µM]	4.5e-08	0.9%[11.5 µM]	i
O=c1c2ccccc2nnn1CSc1nnc(-c2ccco2)o1	i	5%	3.8e-08	2.0%	i
Cc1coc2c(C)c3oc(=O)c4c(c3cc12)CCCC4	x	8%	x	2.0%	x
O=C(COc1ncnc2sccc12)N1CCN(S(=O)(=O)c2ccc(Cl)cc2)CC1	i	0%	5.6e-09	0.3%	i
CC(=O)Nc1sc(C)c(C)c1C(=O)OC1CCOC1=O (stereo not drawn)	i	5%	1.5e-09	0.4%	i
O=C(C1=C(O)C(=O)N(CCN2CCOCC2)C1c1ccncc1)c1ccco1 (stereo not drawn)	x	0%	x	-1.1%	x
COC(=O)c1ccc(OC(=O)c2ccccn2)cc1	i	-1%	1e-09	1.1%	i
COCc1ccc2oc(C(=O)O)cc2c1	i	1%	2.7e-08	2.0%	i
CCOC(=O)N1CCN(C(=O)CN2C(=O)COc3ccc(C)cc32)CC1	i	4%	1.4e-09	0.2%	i
CCCC(=NCC(=O)O)C1=C(O)C(C(=O)OC)C(C)(C)CC1=O (stereo not drawn)	x	6%	x	1.2%	x
CN=C(C)C1=C(O)C(C(=O)OC)C(C)(C)CC1=O (stereo not drawn)	x	3%	x	3.7%	x
COc1ccc(CN2CCN(C(=O)c3ccco3)CC2)cc1	i	-1%	1.8e-09	0.3%	i
Cc1onc(-c2c(Cl)cccc2Cl)c1C(=O)Nn1cnnc1	i	-6%	1.2e-08	-2.2%	i
N#Cc1cccc(Cn2nnc(-c3ccccc3)n2)c1	i	15%	3.1e-08	-1.0%	i
Cc1cc(NC(=O)NC2(C(F)(F)F)Oc3ccc(Cl)cc3O2)no1 (stereo not drawn)	i	-8%	1.9e-09	-0.5%	i
Cn1nnc(-c2ccc(OCc3ccccc3F)cc2)n1	i	4%	1e-09	-0.1%	i
CCn1nnnc1SCC(=O)Nc1nc(-c2cccs2)cs1	i	15%	1e-09	2.3%	i
CC(C)n1nc(C(=O)OCC(=O)N(C)C2CCS(=O)(=O)C2)c2ccccc2c1=O (stereo not drawn)	i	1%[11.4 µM]	2.4e-08	-2.7%	i
CC(C)SC(=N)N	x	0%	x	-1.3%	x
Cc1cc(C)n2c(SCC(=O)N(C)C3CCS(=O)(=O)C3)nnc2n1 (stereo not drawn)	i	-13%	1e-09	1.9%	i
O=S(=O)(Nc1ccc2c(c1)OCCO2)c1ccc(Br)s1	i	10%	1.5e-09	2.4%	i
COc1cc(NC(=O)c2ccc(S(=O)(=O)N(C)C)cc2)cc(OC)c1OC	x	-6%	x	0.0%	x
C=CCN(CC=C)S(=O)(=O)c1ccc(F)cc1	i	17%	1e-09	1.1%	i
COc1ccc(N2CCn3c2nc2c3c(=O)n(CCN3CCOCC3)c(=O)n2C)cc1	i	-8%	1.9e-08	2.2%	i
O=C1NCCN1C(=O)c1ccco1	i	-2%[11.4 µM]	1e-09	0.2%	i
Cc1cc(C(=O)OCC(=O)Nc2ccc(S(=O)(=O)N3CCOCC3)cc2)c(C)o1	i	-4%	1e-09	-0.6%	i
COc1ccc2cc(C3(C)NC(=O)NC3=O)ccc2c1 (stereo not drawn)	i	0%	1e-09	-0.9%	i

# More structures.
Structure	A488 fluor	TSHR agonist	A647 fluor	AID923	Resorufin fluor
CC1(C)Cc2c(sc3c2C2=NCCN2C=N3)CO1	i	x	7.5e-08	x	i
Cc1ccccc1Nc1nc(N)nc(CSCc2c(C)noc2C)n1	i	0%	3.4e-08	1.5%	i
COc1ccc(S(=O)(=O)N(C)CC(=O)Nc2ccccc2C(F)(F)F)cc1OC	i	0%	3.9e-08	0.2%	i
N#CCCN(Cc1cccnc1)C(=O)Nc1ccc(Cl)c(Cl)c1	x	2%	x	0.0%	x
O=C(Cn1cc2c(n1)CCCC2)NCCc1ccccc1	x	10%	x	-0.4%	x
COC(=O)c1nc2n(n1)C(c1ccc(OC)c(OC)c1OC)C1=C(CCCC1=O)N2 (stereo not drawn)	i	1%	7.3e-09	-2.0%	i
O=C(O)c1c[nH]c2ccc(S(=O)(=O)N3CCOCC3)cc12	i	x	5.8e-09	x	i
CCN(CC)CCn1c2ccccc2c2cnc(N=CN(C)C)c(C#N)c21	i	-32%[inhibitor]	2.2e-08	1.0%	i
Cc1ccc(C(=O)Nc2ccc3c(c2)OCO3)o1	x	1%	x	1.7%	x
Cc1nc(N2CCN(C(c3ccccc3)c3ccccc3)CC2)nc2c1C(=O)CCC2	i	0%	2.8e-09	1.2%	i

# Copied from above, 5 compounds:
Structure	A488 fluor	TSHR agonist	A647 fluor	AID923	Resorufin fluor
COC(=O)c1nc2n(n1)C(c1ccc(OC)c(OC)c1OC)C1=C(CCCC1=O)N2 (stereo not drawn)	i	1%	7.3e-09	-2.0%	i
O=C(O)c1c[nH]c2ccc(S(=O)(=O)N3CCOCC3)cc12	i	x	5.8e-09	x	i
CCN(CC)CCn1c2ccccc2c2cnc(N=CN(C)C)c(C#N)c21	i	-32%[inhibitor]	2.2e-08	1.0%	i
Cc1ccc(C(=O)Nc2ccc3c(c2)OCO3)o1	x	1%	x	1.7%	x
Cc1nc(N2CCN(C(c3ccccc3)c3ccccc3)CC2)nc2c1C(=O)CCC2	i	0%	2.8e-09	1.2%	i

# Next part.
Structure	A488 fluor	TSHR agonist	A647 fluor	AID923	Resorufin fluor
S=c1nc(-c2ccccc2)n(CCCN2CCOCC2)c2c1CCCC2	i	-4%	2.1e-09	-0.8%	i
COC(=O)Nc1ccc(S(=O)(=O)Nc2ccccc2F)cc1	i	0%	1e-09	2.9%	i
CCOC(=O)C(C)Oc1cccc2c(=O)n(CC(=O)NCc3ccco3)ccc12 (stereo not drawn)	x	1%	x	-1.5%	x
COc1ccc(CC(=O)Nc2ccc(-c3nc4cc(C)ccc4o3)c(O)c2)cc1OC	x	9%	x	0.2%	x
O=C(NCc1cccnc1)C1CC(c2ccc(F)cc2)=NO1 (stereo not drawn)	i	-1%	1e-09	-0.5%	i
O=C(NCCCN1CCOCC1)c1csc2c1CCCC2	i	0%[11.4 µM]	1.3e-08	0.0%	i
O=C(c1cccc(F)c1)N1CCC2(CCN(Cc3ccncc3)CC2)CC1	i	7%	2.5e-09	-0.7%	i
Cc1ccc(-n2c(C)nc3c(cnn3-c3ccc(F)cc3)c2=O)cc1C	i	u	3.4e-09	-0.3%	i
COc1ccc(N2C(=O)C3C(C2=O)C2C=CC3C23CC3)c(OC)c1 (stereo not drawn)	i	x	1.5e-08	x	i
Fc1ccc(CSc2nc3ncccc3[nH]2)cc1	x	7%	x	7.6%	x
COc1cc2c(cc1OC)C(CCN)=NCC2	i	0%[11.4 µM]	1e-08	4.7%[11.5 µM]	i
Cn1c(C(=O)NCCCN2CCCCC2)cc2sccc21	x	u	x	0.4%	x
Cc1n[nH]c(=O)nc1NCCN(C)C	i	1%	1.7e-08	0.2%	i
Cc1ccccc1OCC(=O)Nc1ccc(N2CCN(S(C)(=O)=O)CC2)cc1	i	-8%	1e-09	-0.1%	i
CCN(CC)S(=O)(=O)c1ccc(NC(=O)c2ccc(NS(C)(=O)=O)cc2)cc1	i	u	5.9e-09	1.6%	i
COc1ccc2c(CC(=O)Nc3nnc(C4CC4)s3)coc2c1	i	9%	2.6e-08	-1.2%	i
CCOC(=O)C1CCN(CC(=O)Nc2c(C(=O)OC)[nH]c3ccccc23)CC1	i	10%	2.9e-09	2.2%	i
CCN1C(=O)/C(=C\N2CCCCCC2)SC1=S	i	u	2.9e-08	0.7%	i
COc1ccc(N(CC(=O)O)S(=O)(=O)c2ccc(OC)c(OC)c2)cc1	x	u	x	-0.9%	x
O=c1[nH]cnc2ccccc12	x	-6%	x	1.2%	x
C(=N\c1nc2ccccc2n1CCN1CCOCC1)/c1cccs1	i	u	3.8e-09	-0.9%	i
CCCN1Cc2cccc(C(=O)Nc3ccc(N4CCN(CC)CC4)cc3)c2C1=O	i	-16%	1.7e-08	0.7%	i
CCOC(=O)C1=C(C)NC(=O)NC1c1ccc2c(c1)OCO2 (stereo not drawn)	i	x	1.9e-09	x	i
CCCc1[nH]nc2c1C(c1ccc(OC)cc1OC)C(C#N)=C(N)O2 (stereo not drawn)	i	7%	1e-09	-1.8%	i

# High-throughput results as filed in PubChem.

# Only part of the results is shown (hit frequency here may not be typical).
